# Ecoli rRNA inh = inhibitors of bacterial rRNA selective over humanized ribosomes | 350,000 compounds, 1.6% hits | GFP signal change (wild-type ribosome), % (no concentration beside the values) | E. coli WT GFP vs humanized-ribosome RFP mutants, fluorescence, 24 h; hits give low values; DMSO median 0, no signal -100;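 active means significant combined selectivity score with lowered wild-type GFP, culture density cut under 30%, mutant RFP and density less affected; inactive means any of these conditions unmet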; further: one replicate is shown; some compounds called inactive have numbers as strong as hits
# Ecoli rRNA inh OD600 = recorded beside Ecoli rRNA inh, whose call it bears; OD600 change, %; measured here: OD600 growth;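 optical density of the mix in the first replicate; 0 = DMSO median and -100 = no signal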
# Ecoli rRNA inh RFP = second read-out of Ecoli rRNA inh, no call of its own (marks repeat the call); RFP signal change, %; measured here: RFP humanized mutant strains;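 first replicate; 0 = DMSO median and -100 = no signal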
# * marks the source's active call; other numbers are inactive results. A portion of the library; the hit share may differ from the screen's.
# The first three compounds, to show the layout:
SMILES,Ecoli rRNA inh,Ecoli rRNA inh OD600,Ecoli rRNA inh RFP
CCc1c(-c2ccc(Br)cc2)ncn1Cc1cccc(-c2ccccc2)c1,-55,-81,-15
O=C(C[C@H]1C=C[C@@H](NC(=O)CCN2CCCCC2)[C@@H](CO)O1)Nc1ccc(-c2ccccc2)cc1,-5,-4,2.1
CO[C@@H]1CN(C)C(=O)c2ccc(NS(C)(=O)=O)cc2OC[C@H](C)N(CC2CCOCC2)C[C@H]1C,2,-1,-2.5

# All compounds of this part, from the start:
SMILES,Ecoli rRNA inh,Ecoli rRNA inh OD600,Ecoli rRNA inh RFP
CCc1c(-c2ccc(Br)cc2)ncn1Cc1cccc(-c2ccccc2)c1,-55,-81,-15
O=C(C[C@H]1C=C[C@@H](NC(=O)CCN2CCCCC2)[C@@H](CO)O1)Nc1ccc(-c2ccccc2)cc1,-5,-4,2.1
CO[C@@H]1CN(C)C(=O)c2ccc(NS(C)(=O)=O)cc2OC[C@H](C)N(CC2CCOCC2)C[C@H]1C,2,-1,-2.5
CN(C)C(=O)C[C@@H]1CC[C@H]2[C@@H](COC[C@@H](O)CN2C(=O)C2CCCC2)O1,2,1,3.0
CN1c2ccc(C3=CCCCC3)cc2[C@@H]2[C@@H](CCN2S(=O)(=O)c2ccc(F)cc2)[C@H]1CO,-3,0,1.9
C[C@H](CO)N1C[C@H](C)[C@@H](CN(C)C(=O)Nc2ccc3c(c2)OCO3)Oc2ccc(NC(=O)CCCCCC(=O)Nc3ccccc3N)cc2CC1=O,2,3,-3.0
C[C@@H]1CCCCO[C@H](CN(C)C(=O)Nc2ccc3c(c2)OCO3)[C@@H](C)CN([C@H](C)CO)C(=O)c2cc(NS(C)(=O)=O)ccc2O1,-1,5,2.0
CCCNC(=O)[C@@H]1[C@@H](CO)[C@@H]2Cn3c(ccc(C4=CCCC4)c3=O)[C@@H]2N1C(=O)c1cnccn1,-1,0,1.5
C[C@@H]1CN([C@@H](C)CO)C(=O)CCCn2cc(nn2)CO[C@H]1CN(C)Cc1cccc(C(F)(F)F)c1,-2,1,-1.4
O=C1CN(S(=O)(=O)c2ccccc2)C[C@@H]2[C@@H](c3ccc(C#Cc4ccccc4)cc3)[C@@H](CO)N12,1,-2,2.9
COc1ccccc1NC(=O)N[C@@H]1C=C[C@@H](CC(=O)N[C@H](C)c2ccccc2)O[C@H]1CO,0,-2,-2.0
O=C(C[C@H]1CC[C@H]2[C@@H](COC[C@H](O)CN2C(=O)Nc2ccc(Cl)c(Cl)c2)O1)NCc1ccc(Cl)c(Cl)c1,-56,-75,-20
C[C@@H]1CN([C@H](C)CO)S(=O)(=O)c2ccc(C3=CCCC3)cc2O[C@@H]1CN(C)C(=O)C1CC1,-1,-9,0.9
O=S(=O)(c1ccccc1)N1CCCCN2[C@H](CO)[C@H](c3ccc(-c4ccccc4F)cc3)[C@@H]2C1,-1,3,12
CC(C)NC(=O)Nc1cccc2c1O[C@@H](CN(C)S(=O)(=O)c1cn(C)cn1)[C@@H](C)CN([C@H](C)CO)C2=O,3,0,-0.3
O=C(C[C@H]1C[C@H]2c3cc(NC(=O)c4cccnc4)ccc3O[C@H]2[C@@H](CO)O1)NCC1CC1,2,-3,-3.1
C[C@@H]1CCCCO[C@@H](CN(C)S(=O)(=O)c2ccccc2)[C@H](C)CN([C@H](C)CO)C(=O)c2cc(NS(=O)(=O)c3cccs3)ccc2O1,-4,-3,3.5
Cc1cnc(-c2nc3ccccc3n2C(C(=O)NC(C)(C)C)c2ccncc2)cn1 (stereo unspecified),15,6,1.7
CO[C@H]1CN(C)C(=O)c2cc(NC(=O)NC3CCCC3)ccc2OC[C@@H](C)N(CC2CC2)C[C@H]1C,3,6,0.7
Clc1cccc(CNc2ccn3nc(-c4ccccc4Cl)cc3n2)c1,-37,-45,38
CC(C)C(=O)Nc1ccc2c(c1)C(=O)N(C)[C@H]1CC[C@@H](CC(=O)NCc3cccc(F)c3)O[C@H]1CO2,-3,5,-0.1
O=C(C1CC1)N1C[C@H]2[C@@H](c3ccccc31)[C@H](CO)N2C(=O)c1ccccc1F,6,10,-2.7
C[C@H]1CC(=O)NCC/C=C\C[C@H](c2ccc3c(c2)OCO3)NC1=O,0,2,-2.6
C[C@@H]1CN([C@@H](C)CO)S(=O)(=O)c2ccc(C#CC3CCCC3)cc2O[C@@H]1CN(C)C(=O)Cc1ccncc1,1,-11,6.0
O=C(C[C@H]1CC[C@@H]2[C@H](COC[C@@H](O)CN2S(=O)(=O)c2cccc(F)c2)O1)NCCCN1CCOCC1,1,2,-1.7
CCC(=O)N1CC2(C1)[C@H](c1ccc(-c3cccc(OC)c3)cc1)[C@@H](CO)N2C(C)=O,-1,4,0.5
O=C(CC1CC1)N1[C@H](CO)[C@@H]2c3ccccc3N(S(=O)(=O)c3ccc(F)cc3)C[C@@H]21,-1,-5,-2.0
CC(=O)c1ccc(Nc2nc(C(N)C(C)C)cs2)cc1 (stereo unspecified),1,0,22
CC(=O)OCCn1c([N+](=O)[O-])cnc1C=[N+]([O-])C1CCCCC1,67,0,6.8
Cc1noc(C)c1NC(=O)N(C)C[C@H]1Oc2c(NS(=O)(=O)c3ccccc3)cccc2C(=O)N([C@H](C)CO)C[C@@H]1C,-3,-5,-2.0
Nc1ccn([C@@H]2O[C@H](CNC(=O)[C@H]3CCC(=O)N3)[C@@H](O)[C@H]2O)c(=O)n1,20,10,4.0
N#C[C@@H]1[C@H](c2ccccc2)[C@@H](CO)N1S(=O)(=O)Cc1ccccc1,0,1,0.8
C[C@H]1CN([C@@H](C)CO)S(=O)(=O)c2ccc(C3=CCCCC3)cc2O[C@@H]1CN(C)Cc1cccc(C(=O)O)c1,-9,-18,0.1
CC1(C(=O)NS(=O)(=O)c2ccc(C#N)cc2)CCN1C(=O)Cc1ccc(-c2ccccc2)cc1 (stereo unspecified),-4,5,3.9
C[C@H]1CCCCO[C@H](CN(C)C(=O)Nc2ccc3c(c2)OCO3)[C@@H](C)CN([C@@H](C)CO)C(=O)c2cc(NC(=O)c3ccncc3)ccc2O1,-4,-5,0.2
C[C@@H]1CN([C@H](C)CO)C(=O)c2cccc(NC(=O)Nc3ccc4c(c3)OCO4)c2O[C@@H]1CN(C)Cc1ccccc1,3,11,-2.1
Cn1cncc1C#Cc1ccc(N2C(c3ccsc3)=Cc3ccc(F)cc3C2c2c[nH]c3ccccc23)cc1 (stereo unspecified),-62,-78,-18
COc1ccc(-c2cc(NC(=O)Cc3c(C)[nH]c4ccccc34)ccc2Nc2cccnc2)cc1OC,-3,0,5.1
CCC(=O)Nc1ccc2c(c1)OC[C@H](C)N(C(=O)CC1CC1)C[C@@H](C)[C@H](OC)CN(C)C2=O,-2,0,-1.4
C[C@@H]1CN([C@H](C)CO)C(=O)c2cc(NC(=O)C3CCCCC3)ccc2O[C@@H](C)CCCCO[C@H]1CN(C)C(=O)NC1CCCCC1,0,-7,-2.6

# An excerpt from above, reduced to Ecoli rRNA inh and Ecoli rRNA inh RFP.
canonical_smiles | Ecoli rRNA inh | Ecoli rRNA inh RFP
CC(=O)c1ccc(Nc2nc(C(N)C(C)C)cs2)cc1 (stereo unspecified) | 1 | 22
C[C@@H]1CN([C@@H](C)CO)S(=O)(=O)c2ccc(C#CC3CCCC3)cc2O[C@@H]1CN(C)C(=O)Cc1ccncc1 | 1 | 6.0
COc1ccc(-c2cc(NC(=O)Cc3c(C)[nH]c4ccccc34)ccc2Nc2cccnc2)cc1OC | -3 | 5.1
Cc1cnc(-c2nc3ccccc3n2C(C(=O)NC(C)(C)C)c2ccncc2)cn1 (stereo unspecified) | 15 | 1.7
Cn1cncc1C#Cc1ccc(N2C(c3ccsc3)=Cc3ccc(F)cc3C2c2c[nH]c3ccccc23)cc1 (stereo unspecified) | -62 | -18
CC(=O)OCCn1c([N+](=O)[O-])cnc1C=[N+]([O-])C1CCCCC1 | 67 | 6.8

# The list goes on:
SMILES,Ecoli rRNA inh,Ecoli rRNA inh OD600,Ecoli rRNA inh RFP
C/C=C/c1ccc([C@@H]2[C@@H](C#N)N(c3ncc(CC)s3)[C@H]2CO)cc1,-2,-11,6.2
CCC(=O)N(C)C[C@@H]1Oc2cc(-c3ccc(F)cc3)ccc2S(=O)(=O)N([C@H](C)CO)C[C@@H]1C,-7,-10,-0.3
Cc1noc(C)c1NC(=O)N(C)C[C@@H]1OCCCC[C@@H](C)Oc2ccc(NC(=O)Nc3ccc(C(F)(F)F)cc3)cc2C(=O)N([C@@H](C)CO)C[C@H]1C,0,-6,-0.3
C[C@H](NC(=O)C[C@@H]1C[C@H]2c3cc(NC(=O)NC4CCCC4)ccc3O[C@H]2[C@@H](CO)O1)c1ccccc1,-2,5,4.3
Cc1ccc(S(=O)(=O)Nc2ccc3c(c2)C(=O)N([C@H](C)CO)C[C@@H](C)[C@H](CN(C)C(=O)NC(C)C)O3)cc1,6,3,-1.7
Cc1noc(C)c1S(=O)(=O)N(C)C[C@H]1OCCCC[C@@H](C)Oc2ccc(NC(=O)Nc3ccc4c(c3)OCO4)cc2C(=O)N([C@H](C)CO)C[C@@H]1C,5,10,-0.4
CCOC(=O)C1=CCC(c2cccs2)N(S(=O)(=O)c2ccc(C)cc2)C1 (stereo unspecified),-18,-15,-1.8
COc1ccc(S(=O)(=O)N(C)C[C@@H]2OCCCC[C@@H](C)Oc3ccc(NS(=O)(=O)c4ccc(Cl)cc4)cc3C(=O)N([C@@H](C)CO)C[C@@H]2C)cc1,-1,4,-2.3
C[C@@H]1CN([C@H](C)CO)C(=O)c2ccccc2-c2ccccc2CO[C@H]1CN(C)S(=O)(=O)c1cccc(C#N)c1,1,0,0.4
CC(C)c1cn(CC[C@@H]2CC[C@H](NC(=O)C3CCCC3)[C@@H](CO)O2)nn1,2,4,0.1
C[C@@H]1CN([C@H](C)CO)C(=O)Cc2cc(NS(=O)(=O)c3ccc(F)cc3)ccc2O[C@@H]1CN(C)S(=O)(=O)c1ccccc1,-1,-3,2.3
O=C(NCc1ccncc1)c1ccc(-c2ccc(F)c(F)c2)c2ccoc12,-50,-72,-15
CCNC(=O)C1CCCN(C(=O)c2ccccc2F)CC1 (stereo unspecified),9,16,-3.1
C[C@H](CO)N1C[C@H](C)[C@H](CN(C)Cc2ccc(-c3ccccc3)cc2)Oc2c(NS(=O)(=O)c3cn(C)cn3)cccc2C1=O,-5,-2,-1.7
C[C@@H]1CN([C@H](C)CO)C(=O)c2cc(NC(=O)Nc3cccc4ccccc34)ccc2O[C@@H]1CN(C)C,1,8,1.1
Cn1ccc2c(/C=C/c3ccc(F)cc3)cc3c(c21)C1CCC3C1 (stereo unspecified),2,3,6.8
O=C(NC1CCCC1)N1CC(=O)N2[C@@H](CO)[C@H](c3ccc(-c4ccc(F)cc4)cc3)[C@@H]2C1,1,-4,0.6
C[C@@H]1CN([C@H](C)CO)S(=O)(=O)c2ccc(C#Cc3ccccn3)cc2O[C@@H]1CN(C)C(=O)C1CC1,-4,3,0.2
C/C=C/c1ccc([C@@H]2[C@@H](CO)N(C(=O)CC)[C@H]2CNC(=O)C2CC2)cc1,1,2,1.8
COC(=O)C1=C(C)N(Cc2cccc(C(F)(F)F)c2)C(=NCc2ccc3c(c2)OCO3)NC1CCc1ccccc1 (stereo unspecified),-42,-79,-17
COCC(=O)N(C)C[C@H]1Oc2ncc(C#Cc3ccc(OC)cc3)cc2C(=O)N([C@@H](C)CO)C[C@@H]1C,3,6,-2.1
Cc1cc(C)n2c(Nc3ccc4c(c3)OCCO4)c(C3CC3)nc2n1,2,11,-5.2
O=C(c1ccc(F)cc1)N1CC(=O)N2[C@@H](CO)[C@@H](c3ccc(C#CC4CCCC4)cc3)[C@@H]2C1,-48,-74,-2.6
COc1ccc(NC(=O)N[C@H]2CC[C@@H](CCNS(=O)(=O)c3cccc(Cl)c3)O[C@@H]2CO)cc1,-3,-3,4.5
C/C=C/c1ccc2c(c1)O[C@@H](CN(C)C(=O)C1CCOCC1)[C@H](C)CN([C@@H](C)CO)S2(=O)=O,1,1,-1.8
CCC(=O)Nc1ccc2c(c1)C(=O)N(C)C[C@@H](OC)[C@H](C)CN(Cc1cccc(F)c1)[C@H](C)CO2,-2,-9,1.7
Cc1ccc(S(=O)(=O)N(C)C[C@@H]2Oc3ncc(-c4ccccc4)cc3C(=O)N([C@H](C)CO)C[C@@H]2C)cc1,-6,-1,6.2
COc1ccccc1CN(C)C[C@H]1OCc2ccccc2-c2c(n(C)c3ccccc23)C(=O)N([C@H](C)CO)C[C@@H]1C,-2,-9,4.8
c1cc(-c2ccc(C3[C@H]4CNC[C@@H]3N4CC3CCOCC3)cc2)ccn1 (stereo partly specified),2,2,0.0
CCCNC(=O)N1C[C@@H]2[C@H](c3ccccc31)[C@H](CO)N2C(=O)Nc1ccccc1,-1,-1,-1.7
C[C@H]1CN([C@@H](C)CO)C(=O)c2ccccc2-c2ccccc2CO[C@H]1CN(C)Cc1ccc2c(c1)OCCN2C,1,1,0.4
CCS(=O)(=O)N1CCCCN2[C@H](CO)[C@H](c3ccc(C#Cc4ccccc4OC)cc3)[C@@H]2C1,2,-2,12
